# Bioassay records (PubChem BioAssay)
# ugtP null kill – growth inhibition of ugtP-null S. aureus, primary screen, RN4220 ugtP deletion, OD600 | 16 h; some inactives read as strong as hits | growth inhibition, % (no concentration beside the values) | 330,000 compounds, 0.54% hits | AID 1259309, 2017;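 active = z-score under -3 and OD600 up to 0.15 on both plates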;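 also: plate controls were untreated wells for no effect and antibiotic for full effect; wells of about 80 µL received 100 nL stock; the first replicate is given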
# Mtb hypoxia inh – PubChem AID 1159583 | M. tuberculosis hypoxia-regulated fluorescent reporter, fluorescence | fluorescence inhibition, % (test concentration not listed) | 300,000 compounds, 0.1% hits;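 active = 35 to 45% if threefold the growth effect, above 45% if 1.5-fold the growth effect; inactive = the rest, general growth blockers included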;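 also: wells of about 50 µL received 100 nL stock; 0% = vehicle wells and 100% = reference inhibitor wells; whole bacteria with a GFP reporter of the hypoxia response; strong numbers were not always called active; many hits fall short of the cut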
# BJeLR viability – MLPCN primary cell-based screen for lethality selective to Ras in HRASV12 cells | inhibition, % (concentration not given with the values) | AID 1554, 2009 | BJeLR (HRASV12) viability, CellTiter-Glo ATP luminescence, 48 h; reference of the scale not given here | 300,000 compounds, 0.17% hits;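 active = replicate mean above 50%; inconclusive = above 50% but judged a plate artefact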;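 also: 50 nL library stock added to about 25 µL; numbers are from one replicate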
# Sa RN4220 lethal – growth inhibition of S. aureus RN4220, primary screen, OD600; 16 h; inhibition, % (test concentration not listed); 330,000 compounds, 0.33% hits; AID 1259311, 2017;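 active = z-score of -3 or lower and OD600 up to 0.18 on both plates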;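 also: plate controls were untreated cells for no effect and reference antibiotic for full effect; stock transfer was 100 nL into about 80 µL; one replicate is shown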
# PrP UTR inh – inhibition of PrP 5' UTR reporter expression; cell-based PrP 5' UTR mRNA reporter, plate reader; inhibition, % (concentration not given with the values); 340,000 compounds, 0.35% hits;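 active = every replicate at 50% or more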;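 also: 0 = median of the neutral control wells; tested in H4 reporter cells; numbers are from one replicate; inactives centre near -14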
# Autofluor counter – counter-screen for toxin protease inhibitors: compound fluorescence. AID 624483. fluorescence intensity (test concentration not listed). compound autofluorescence counterscreen, microsphere flow cytometry; stronger effect = higher value. 360,000 compounds, 3.1% hits;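 active = at least 3 SD above the mean of all compounds, about 16000 in these data; inconclusive = too few beads counted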;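 also: 100 nL of 1 mM stock went into each well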
# Mtb hypoxia inh growth – further read-out of Mtb hypoxia inh, marked with its call; growth inhibition, %; measured here: M. tuberculosis growth (absorbance);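 0% = vehicle and 100% = reference antibiotic; read after six days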
# Numbers without * were called inactive; ? = inconclusive; . = no result given. This is a random part of the collection; overall some 3.9% were active at least once.
SMILES,ugtP null kill,Mtb hypoxia inh,Mtb hypoxia inh growth,BJeLR viability,Sa RN4220 lethal,PrP UTR inh,Autofluor counter
N#CCCN(Cc1cccnc1)C(=O)Nc1ccc(Cl)c(Cl)c1,-1,6,7,-8,2.6,0,8105
CCn1c(NC(=O)C2CCCCC2)nc2ccccc21,0,-1,-7,12,9.8,-8,3282
CCOC(=O)C(CC)(CC)C(=O)/C=C/c1ccc(Br)cc1,11,14,16,5,-3.8,-20,3243
Cc1cc(C)cc(OCC(=O)OCc2cc([N+](=O)[O-])cc3c2OCOC3)c1,14,8,6,.,7.3,-7,3002
CCOC(=O)c1c(NC(=O)c2ccco2)n(C2CCCCC2)c2nc3ccccc3nc12,-17,-4,8,2,22,-4,7829
COc1ccc(NC2CCCN(C(=O)CCCN3CCCCC3=O)C2)cc1 (centres undefined),5,2,-4,-7,4.6,-27,5348
CC1(C)OC(=O)C(C(c2ccccc2)C(C#N)C(N)=O)=C(O)O1 (centres undefined),1,5,-4,2,0.6,-23,5415
Cc1[nH]c(=O)[nH]c(=O)c1C=NNC(=O)[C@H](C)N,6,6,14,.,3.5,.,.
O=C(Cn1cc2c(n1)CCCC2)NCCc1ccccc1,7,.,.,-5,-0.3,-21,6037
COc1ccc(-c2cn[nH]c2-c2ccc(O)cc2O)cc1OC,7,1,-2,4,3.5,-9,4293
CC(CCc1ccccc1)NC(=O)C1CCN(C(=O)c2sccc2-n2cccc2)CC1 (centres undefined),8,10,1,-14,-12,-9,5676
CCOC(=O)N1CCN(C2=Nc3cccc4cccc2c34)CC1,4,2,4,9,5.4,-28,4941
Cc1cc(=O)oc2cc(OC(C)C(=O)NCC3CCCO3)ccc12 (centres undefined),1,14,8,-5,-0.4,15,3179
COC(=O)c1nc2n(n1)C(c1ccc(OC)c(OC)c1OC)C1=C(CCCC1=O)N2 (centres undefined),2,7,2,-4,-14,-4,2950
COC(=O)c1ccc(C=NOCC(=O)NCCc2ccc(OC)c(OC)c2)cc1,8,16,13,.,2.7,.,.
CC(C)(C)c1ccc(NC(=O)c2cc[n+]([O-])cc2)cc1,6,-9,3,1,3.7,-24,3671
COc1ccccc1CN1CCNC(=O)C1CC(=O)NCc1c(C)n[nH]c1C (centres undefined),4,1,-2,-2,3.9,-27,4992
CCc1ccc([C@@H]2C[C@H]3CN(Cc4ccccc4OC)C(=O)[C@]34CCCN24)cc1,.,.,.,5,.,-9,24775*
Cc1ccc(Cl)c(OC(=O)c2nn(C(C)C)c(=O)c3ccccc23)c1,6,1,6,7,5.0,-28,2141
O=C(O)c1c[nH]c2ccc(S(=O)(=O)N3CCOCC3)cc12,1,.,.,7,0.3,-15,?
O=C(CCN1C(=O)C2CCCCC2C1=O)N1CCN(S(=O)(=O)c2c(F)cccc2F)CC1 (centres undefined),4,4,-1,-5,2.1,1,5759
CCC(C)[C@H](NC(=O)c1cc2cc(Cl)ccc2n1C)C(=O)N1CCC(C(=O)O)CC1 (some centres undefined),18,7,3,5,2.6,-15,3613
C#CC(=O)N(c1cccc(OC)c1)C(C(=O)NC1CCCC1)c1cccs1 (centres undefined),32,6,11,14,47,-32,10445
Nn1c(SCC(=O)Nc2ccc(N3CCOCC3)cc2)nnc1-c1ccccc1F,-1,6,-6,.,2.8,-18,2962
CSCC[C@@H](C(=O)NCc1cccs1)N1Cc2ccccc2C1=O,13,-4,-3,0,24,-2,6286

# The list goes on, starting with the last 6 of the part before.
SMILES,ugtP null kill,Mtb hypoxia inh,Mtb hypoxia inh growth,BJeLR viability,Sa RN4220 lethal,PrP UTR inh,Autofluor counter
O=C(O)c1c[nH]c2ccc(S(=O)(=O)N3CCOCC3)cc12,1,.,.,7,0.3,-15,?
O=C(CCN1C(=O)C2CCCCC2C1=O)N1CCN(S(=O)(=O)c2c(F)cccc2F)CC1 (centres undefined),4,4,-1,-5,2.1,1,5759
CCC(C)[C@H](NC(=O)c1cc2cc(Cl)ccc2n1C)C(=O)N1CCC(C(=O)O)CC1 (some centres undefined),18,7,3,5,2.6,-15,3613
C#CC(=O)N(c1cccc(OC)c1)C(C(=O)NC1CCCC1)c1cccs1 (centres undefined),32,6,11,14,47,-32,10445
Nn1c(SCC(=O)Nc2ccc(N3CCOCC3)cc2)nnc1-c1ccccc1F,-1,6,-6,.,2.8,-18,2962
CSCC[C@@H](C(=O)NCc1cccs1)N1Cc2ccccc2C1=O,13,-4,-3,0,24,-2,6286
O=C(CN1C2=NCCN2c2ccccc21)c1ccc(Br)s1,2,-3,-6,-4,1.4,-9,2703
CC1OC(Oc2ccc3ccc(=O)oc3c2-c2c(O)ccc3cc(Oc4ccc5ccc(=O)oc5c4)c(=O)oc23)C(O)C(O)C1O (centres undefined),-2,0,3,4,-0.4,-29,3979
Cc1ccc(NC(=O)CCn2cccc2)cc1F,0,13,9,-5,-0.4,-26,4268
CCS(=O)(=O)N1CCN(C(=O)COc2ccc(-c3ccccc3)cc2)CC1,-4,4,0,-6,0.3,-11,22952*
COc1cccc(C(=O)NC(=S)Nc2ccc(N3CCCC3)cc2)c1,87*,.,.,4,2.7,-17,2310
Cc1ccc(-c2noc(CSc3nnc(-c4ccncc4)n3-c3ccc(F)cc3)n2)cc1,2,4,6,3,6.7,-3,21053*
Cc1c(C(=O)N2CCOCC2)sc(NC(=O)c2ccccc2F)c1C#N,1,16,5,1,2.4,-5,3270
O=C(NCCS(=O)(=O)N1CCN(c2ccccc2)CC1)c1ccc2c(c1)OCO2,1,-7,0,-3,1.5,-4,6668
COc1ccccc1OCC(=O)N/N=C1\CCc2ccccc21,.,.,.,2,.,-44,4704
CCSc1nnc(-c2cc(Br)ccc2N=Cc2c(C)[nH]n(-c3ccccc3)c2=O)c(=O)[nH]1,1,10,10,-4,8.2,-19,3976
CCCC(=O)Nc1ccc(C(N)=O)cc1,6,6,4,1,2.9,-19,4506
O=C1NC(O)(c2ccccc2)Oc2ccccc21 (centres undefined),2,0,-4,-1,5.1,-25,3410
COc1cccc(N2CC(C(=O)Nc3nnc(SCC(=O)NCC4CCCO4)s3)CC2=O)c1 (centres undefined),-3,-5,-4,-14,0.9,-16,5307
O=C(NCc1ccc(F)cc1)c1ccc(CNc2c(N3CCOCC3)c(=O)c2=O)cc1,2,10,4,3,2.5,-4,4390
COc1ccccc1C(=O)C1CCCN(C(=O)Nc2ccccc2F)C1 (centres undefined),4,-1,5,3,3.0,-27,3912
Fc1ccc(-c2onc3ccc(C4OCCO4)cc23)cc1,13,5,1,-1,8.0,-4,3275
O=C(Cc1ccccc1)Nc1nnc(-c2cccc([N+](=O)[O-])c2)s1,0,9,1,12,1.0,8,1879
CCNc1ccc(S(=O)(=O)N2CCCCC2)cn1,5,-3,1,.,5.0,-1,6514
COc1cccc(CNC(=O)c2cccc(S(=O)(=O)N3CCN(c4ccc(F)cc4)CC3)c2)c1,-6,10,1,-5,1.4,-29,?
Nc1[nH]n(-c2c(Cl)cc(Cl)cc2Cl)c(=O)c1N=Nc1ccc(S(=O)(=O)Nc2ncccn2)cc1,1,2,4,.,5.4,4,4296
Cc1ccc(C(C(=O)NC2CCCCC2)N(Cc2ccco2)C(=O)Cc2c[nH]c3ccccc23)o1 (centres undefined),1,-1,6,3,14,-17,?
COc1ccc(-c2nc(CSCC(=O)NCc3ccc4c(c3)OCO4)c(C)o2)cc1,0,1,2,-8,-14,-9,5557
FC(F)(F)c1cccc(NC(=S)N2CCN(c3cccc(C(F)(F)F)c3)CC2)c1,-18,18,4,4,-12,8,2536
CC(=O)CSc1nc(N)c(C#N)c(-c2cccs2)c1C#N,-6,10,8,9,2.2,-14,9364
COc1ccc(CNC(=O)CN(Cc2ccc(Cl)cc2)S(=O)(=O)c2ccccc2)cc1,-11,-3,8,19,-1.3,-14,24986*
SMILES,ugtP null kill,Mtb hypoxia inh,Mtb hypoxia inh growth,BJeLR viability,Sa RN4220 lethal,PrP UTR inh,Autofluor counter
O=C(NNC(=S)NC1CCCCC1)c1sc2ccccc2c1Cl,44,11,2,-3,-6.6,-31,1907
CC(=O)N1CCN=C1SCc1cccc(F)c1,8,8,-9,-8,3.0,-14,4372
COC(=O)Nc1ccc(S(=O)(=O)Nc2ccccc2F)cc1,2,.,.,11,5.7,-4,4228
S=c1nc(-c2ccccc2)n(CCCN2CCOCC2)c2c1CCCC2,2,6,1,-13,1.8,-18,6071
COc1ccc(-c2[nH]ncc2CN(C)Cc2cccnc2)c(F)c1,12,-2,0,-4,0.6,-9,2285
CCCNc1nc(C)cc(-c2cc(-c3ccccc3)on2)n1,8,6,5,-12,2.8,-13,3013
Cc1cc(C)c(OCC(=O)OCC(=O)N2c3ccccc3CC2C)c(C)c1 (centres undefined),9,-1,4,-10,0.7,-3,5920
CCC(C)(C)NC(=O)C(OC(=O)c1ccco1)c1ccccc1F (centres undefined),6,4,8,2,-2.5,-15,.
CN(CC1COc2ccccc2O1)C(=O)c1cc(COc2c(F)cccc2F)on1 (centres undefined),-3,-1,-10,2,-0.4,-13,5490
COC(=O)c1c(N=CN(C)C)sc2c1CCN(c1ncc(C(F)(F)F)cc1Cl)C2,59,10,6,.,26,.,.
O=c1c(Cl)c(O)c2cccc3c4ccccc4n1c23,16,4,4,1,16,-10,2550
Cc1ccccc1N1CC(C(=O)Nc2ccc(S(=O)(=O)N3CCCC3)cc2)CC1=O (centres undefined),5,4,9,9,4.2,-1,6020
COc1ccc(C2=Nn3c(nnc3-c3ccco3)SC2)cc1,-8,-5,-1,-1,4.5,-2,17209*
CCc1ccc(/C=C2\CN(CC)Cc3c2nc2ccccc2c3C(=O)O)cc1,0,1,7,3,1.7,-19,27805*
Cc1ccc(N(CC(=O)Nc2cc(C)cc(C)c2)S(=O)(=O)c2cccc3nonc23)cc1,-12,15,17,-4,7.6,-16,12316
COc1cc(CNC(=O)C2CCC(=O)N(C3CCCCCC3)C2)cc(OC)c1 (centres undefined),0,1,2,2,-0.3,-4,5993
CCn1c(=O)c(C(=O)CN(C)Cc2ccc(F)cc2)c(N)n(Cc2ccccc2)c1=O,4,8,2,-3,5.4,-21,5138
COc1ccccc1N(C)S(=O)(=O)c1ccc(Cl)c(C(=O)Nc2ccncc2)c1,0,-3,0,17,5.6,0,.
O=C(NN=Cc1ccccc1)NC1CCCCC1,7,10,12,.,3.6,.,.
CCOC(=O)C1=C(C)N=c2s/c(=C\c3ccc(OCC(=O)O)cc3)c(=O)n2C1c1ccc(OC(C)C)cc1 (centres undefined),.,.,.,-13,.,-7,1957
CCN(CC)CCn1c2ccccc2c2cnc(N=CN(C)C)c(C#N)c21,-1,7,5,-10,-8.5,-11,4277
CCC(C)Sc1ccc(C2N[C@@](Cc3ccccc3)(C(=O)OC)C3C(=O)N(C)C(=O)C23)cc1 (some centres undefined),-7,6,7,.,6.6,.,.
CC(C)(OC(=O)c1ccc(C#N)cc1)c1cc2ccccc2c(=O)o1,3,5,8,.,4.3,-35,3530
O=C(c1ccco1)N1CCN(c2cc(=O)n(-c3ccc(Cl)cc3)c(=O)[nH]2)CC1,7,4,7,1,-1.1,-26,5284
CC(NC(=O)CN(C)Cc1cccc(Cl)c1)c1ccccc1 (centres undefined),3,-17,-12,-3,2.1,-15,5787
SMILES,ugtP null kill,Mtb hypoxia inh,Mtb hypoxia inh growth,BJeLR viability,Sa RN4220 lethal,PrP UTR inh,Autofluor counter
Cc1nnc(SCC(=O)NC2CCCCCC2)n1C(C)C,12,12,2,2,0.1,-12,5120
COc1ccc(NC(=O)CCCn2c(=O)c3sccc3n(Cc3ccccc3)c2=O)cc1,4,15,17,8,4.0,-8,2599
COCCCNC(=O)c1c(N)n(-c2ccccc2)c2nc3ccccc3nc12,4,1,9,4,1.9,.,5406
CCCc1nc2ccccc2c(=O)n1N,5,.,.,-16,3.7,-22,2732
CCCCOC(=O)Nc1ccc(S(=O)(=O)Nc2ncccn2)cc1,3,15,10,-4,3.0,-4,3607
Cc1cc(NC(=O)C2C3C(=O)N(Cc4ccc(Cl)cc4)C(C(=O)NC4CCCCC4)C34C=CC2(C)O4)no1 (centres undefined),-5,-1,2,-5,-19,-7,2531
O=C(/C=C/c1ccccc1Cl)Nc1ccccc1,-9,7,4,1,9.5,-60,4186
